gsp agonist: agonists of gsp mutant (McCune-Albright syndrome); Potency, µM (titrated, usually from 76.9 µM), for the others: top-dose activation (cAMP increase), hits mostly activators; 340,000 tested, 0.13% active; gsp mutant cells, cAMP HTRF, 30 min; control for the full effect not named in the record; active = well fitted activation curve with a large enough effect; inconclusive = small, poorly fitted or top-dose-only effect, or another doubt; inactive = no such curve, though single readings can be large or run the other way; cell line not stated here;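 further: phosphodiesterase inhibitor Ro 20-1724 added with compounds to block cAMP breakdown; potency means the concentration at half of the fitted maximal effect; nearly all actives have a fitted effect of over 60% in size; about a fifth of the inactives were tested at one dose only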
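Cells stably selected in G418 were plated at 2000/well, grown 16-24 hr, then given compounds in DMSO with the PDE inhibitor […] (300 uM solution added) for 30 min at 37C; cAMP was read by HTRF.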
ClpP mod: qHTS Assay for Activators of ClpP; AID 651965, 2013; purified B. subtilis ClpP, FRET peptide cleavage, 20 min; 340,000 tested, 1.9% active; Potency, µM (series often up to 57.5 µM), inactives show at the top dose activity change, negative = active; ATP-dependent Clp protease proteolytic subunit (Bacillus subtilis (strain 168)), P80244; active = well fitted falling curve with a large enough effect; inconclusive = small, poorly fitted or top-dose-only effect; inactive = no such curve, though single readings can be large or run the other way; further: potency means the concentration at half of the fitted maximal effect; the source files actives as falling curves though it sought activators and does not explain the sign; nearly all actives have a fitted effect of over 65% in size; many hits overshoot -100%
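Buffer: 100 mM Tris/HCl pH8, 100 mM KCl, 0.05% low protease BSA, 2.5% glycerol, 0.01% Tween-20. ClpP 10 microg/mL final; 20 min RT; delta FRET normalized to ADEP and DMSO controls.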
Sfp inh: inhibitors of Bacillus subtilis Sfp phosphopantetheinyl transferase. Q9F4F7. Biochemical Sfp PPTase activity, qHTS. Potency, µM, for the others: max response, negative = inhibition, hits mostly inhibitors. 310,000 tested, 3.5% active; active means well fitted inhibition curve with a large enough effect; inconclusive means small, poorly fitted or top-dose-only effect, or another doubt; inactive means no such curve, though single readings can be large or run the other way;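 further: the enzyme is Sfp with the accession as filed and its product quenches rhodamine fluorescence; potency means the concentration at half of the fitted maximal effect; 0% = enzyme reaction without inhibitor and -100% = no enzyme wells; top concentration of the series not given in the record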
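Compounds were incubated with enzyme (final 15 nM) for 15 min at room temperature before substrate addition started the reaction. Fluorescence at 525 nm excitation, 598 nm emission was recorded immediately and after 30 minutes.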
TRPV1 PAM: potentiators of human vanilloid receptor 1 (TRPV1). 320,000 tested, 0.02% active. Q8NER1. TRPV1-expressing cells, Fluo-8 calcium influx, capsaicin EC20 potentiation; host cell line not named in the record; control for the full effect not named in the record. potentiation, % at 8.33 µM; active means potentiation above 80%; inconclusive means 30% to 80%; inactive means below 30%; further: 0% is about no effect
Target sequence (Q8NER1 whole entry, looked up): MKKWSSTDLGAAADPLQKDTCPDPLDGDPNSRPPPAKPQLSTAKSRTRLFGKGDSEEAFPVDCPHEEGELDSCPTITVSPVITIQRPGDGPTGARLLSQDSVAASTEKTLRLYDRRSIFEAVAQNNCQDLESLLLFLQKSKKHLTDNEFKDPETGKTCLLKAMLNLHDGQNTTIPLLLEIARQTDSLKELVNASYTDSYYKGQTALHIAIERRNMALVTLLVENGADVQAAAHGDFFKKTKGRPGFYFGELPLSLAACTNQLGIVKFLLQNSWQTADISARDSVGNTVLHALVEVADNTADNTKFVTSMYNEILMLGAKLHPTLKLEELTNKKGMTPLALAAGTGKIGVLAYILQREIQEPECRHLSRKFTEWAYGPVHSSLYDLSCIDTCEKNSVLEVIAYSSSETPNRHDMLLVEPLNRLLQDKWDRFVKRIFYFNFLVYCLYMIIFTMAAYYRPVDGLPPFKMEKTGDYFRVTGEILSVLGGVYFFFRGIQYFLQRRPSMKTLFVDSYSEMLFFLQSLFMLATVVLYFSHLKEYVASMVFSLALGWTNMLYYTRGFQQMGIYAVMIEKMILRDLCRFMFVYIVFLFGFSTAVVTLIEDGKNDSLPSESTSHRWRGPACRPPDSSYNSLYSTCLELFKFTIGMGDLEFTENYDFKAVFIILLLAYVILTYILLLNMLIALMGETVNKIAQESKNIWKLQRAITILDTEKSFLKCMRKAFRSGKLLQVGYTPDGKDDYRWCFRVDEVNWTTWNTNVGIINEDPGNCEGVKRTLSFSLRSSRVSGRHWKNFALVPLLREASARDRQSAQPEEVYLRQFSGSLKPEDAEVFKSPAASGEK
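Fluo-8 calcium influx in TRPV1-expressing cells, kinetic read (ex 480/em 520 nm). Compound added and read 3 min for agonist activity, followed by capsaicin at EC20 final and 2 min further read for enhancement.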
D2 potentiator: human D2 receptor positive allosteric modulation; P14416; DiscoveRx D2 beta-arrestin cells, luminescence, 90 min; 100% = 57 uM dopamine signal; potentiation, % (no concentration beside the values); 360,000 tested, 0.23% active; active = potentiation of 50% or more; inconclusive = 30% to 50%; inactive = 30% or less;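 further: compound concentration not given in the record; tested on top of an EC20 dose of dopamine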
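PathHunter D2 cells, attached overnight at 37 deg C, received compound in DMSO plus dopamine at EC20 (50 nM final) for 90 min at 37 deg C. Beta-arrestin recruitment was read as luminescence after 1 h with detection reagent at ambient temperature.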
Menin MLL FP FL: menin-MLL binding inhibition, fluorescein peptide; 290,000 tested, under 10 active; Fluorescence polarization, fluorescein-MLL peptide displacement from menin; FP activity change, % at 61.4 µM; inconclusive = falling polarisation curve, or a change in total fluorescence; inactive = total fluorescence flat and polarisation flat or rising; no compound was filed as active; the % refers to the polarisation; negative = inhibition;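 further: % of control where 0% means no effect; inhibitors lower the polarisation; unlabelled MLL peptide was the positive control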
gsp antag: antagonists of gsp mutant (McCune-Albright syndrome). gsp-mutant cells, cAMP HTRF, 30 min; control for the full effect not named in the record. Potency, µM (titrated, usually from 76.9 µM), without a hit: at the highest dose activity change, negative = inhibition, actives largely listed as inhibitors. 340,000 tested, 0.4% active. AID 624288; active = falling curve of any shape with a large fitted effect; inconclusive = falling curve, mostly with a smaller effect; inactive = flat or rising curve; cell line not stated here;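 further: intracellular cAMP measured with PDE inhibitor Ro 20-1724 present during compound exposure; potency means the concentration at half of the fitted maximal effect; on the % scale 0 is the no-effect control and ±100 the full control effect; nearly all actives have a fitted effect of over 65% in size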
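HTRF cAMP measurement after 30 min RT detection following 30 min, 37C compound treatment alongside […] (added as 300 uM solution) in G418-selected cells seeded at 2000/well and grown 16–24 h.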
* hit, by the source's call; ? = inconclusive; nt = no result given; & = joins results of further samples; [ ] = dose if it differs, or a comment.

(1) CCc1ccccc1NC(=O)C1CCCN(S(=O)(=O)c2ccc3c(c2)CC(C)N3C(C)=O)C1 (stereo not given)
(2) Cc1nn(C)c(C)c1NC(=O)CC12CC3CC(CC(C3)C1)C2
(3) NC(=O)c1ccc(NC(=O)CN2C(=O)NC(c3ccccc3)(c3ccccc3)C2=O)cc1
(4) OCCNCc1ccc(OCc2ccc(Cl)cc2Cl)cc1
(5) COC(=O)[C@H](Cc1ccccc1)NC(=O)O[C@H]1C(=O)c2ccc(OC)cc2O[C@@H]1c1ccc2c(c1)OCO2
(6) CC(OC(=O)/C(C#N)=C/c1ccc(N(C)C)cc1)C(=O)N(C)c1ccccc1 (stereo not given)
(7) COc1cccc(C(=O)N2CCN(C3CCN(Cc4ccccc4)CC3)CC2)c1OC
(8) CCOC(=O)/C(=C/c1c2ccccc2cc2ccccc12)NC(=O)c1ccccc1
(9) COc1ccc2nc3oc(C(=O)Nc4ccc(OC)c(OC)c4)cc3cc2c1
(10) Fc1ccc(-c2nnc(N3CCOCC3)c3ccccc23)cc1F

screen / no. | 1 | 2 | 3 | 4 | 5 | 6 | 7 | 8 | 9 | 10
gsp agonist | -24.3% | -53.2%[inhibitor] | 17.3% | -17.6%[15.4 µM] | 21.3% | -34.1% | 16.6%[15.4 µM] | 23.8% | -0.6% | -42.4%
ClpP mod | -2.1% | 0.5% | 0.1% | nt | -5.2% | -1.2% | nt | -2.2% | -8.9% | nt
Sfp inh | 8.7% | 33.1%[activator] | 1.2% | -12.5% | -13.6%&-1.1% | nt | 79.4µM* | -11.5% | -1.3% | 16.8%
TRPV1 PAM | 15.8 | -9.1 | 11.2 | 6.4 | 10.2 | -14.8 | -0.3 | -4.4 | -19.1 | -8.3
D2 potentiator | -2.7 | -5.8 | -7.6 | -19.3 | 6.8 | -3.9 | -2.9 | -12.7 | 11.9 | -3.5
Menin MLL FP FL | -0.9 | -0.3 | -0.5 | -3.8 | -4.6&3.4 | nt | 2.3 | 2.7 | 4.6 | -4.8
gsp antag | -12.3% | 6.8% | 6.3% | 22.6% | ? | 25.1µM* | 0.4% | -9.1% | -0.4% | -19.4%

Another view of part of the listing above:
Results follow in this order: gsp agonist, ClpP mod, Sfp inh, TRPV1 PAM, D2 potentiator, Menin MLL FP FL, gsp antag
3: NC(=O)c1ccc(NC(=O)CN2C(=O)NC(c3ccccc3)(c3ccccc3)C2=O)cc1
→ 17.3%, 0.1%, 1.2%, 11.2, -7.6, -0.5, 6.3%
8: CCOC(=O)/C(=C/c1c2ccccc2cc2ccccc12)NC(=O)c1ccccc1
→ 23.8%, -2.2%, -11.5%, -4.4, -12.7, 2.7, -9.1%
5: COC(=O)[C@H](Cc1ccccc1)NC(=O)O[C@H]1C(=O)c2ccc(OC)cc2O[C@@H]1c1ccc2c(c1)OCO2
→ 21.3%, -5.2%, -13.6%&-1.1%, 10.2, 6.8, -4.6&3.4, ?
10: Fc1ccc(-c2nnc(N3CCOCC3)c3ccccc23)cc1F
→ -42.4%, nt, 16.8%, -8.3, -3.5, -4.8, -19.4%
6: CC(OC(=O)/C(C#N)=C/c1ccc(N(C)C)cc1)C(=O)N(C)c1ccccc1 (stereo not given)
→ -34.1%, -1.2%, nt, -14.8, -3.9, nt, 25.1µM*
2: Cc1nn(C)c(C)c1NC(=O)CC12CC3CC(CC(C3)C1)C2
→ -53.2%[inhibitor], 0.5%, 33.1%[activator], -9.1, -5.8, -0.3, 6.8%
9: COc1ccc2nc3oc(C(=O)Nc4ccc(OC)c(OC)c4)cc3cc2c1
→ -0.6%, -8.9%, -1.3%, -19.1, 11.9, 4.6, -0.4%

Back to the main list, repeating the 2 entries before the break.
(9) COc1ccc2nc3oc(C(=O)Nc4ccc(OC)c(OC)c4)cc3cc2c1
(10) Fc1ccc(-c2nnc(N3CCOCC3)c3ccccc23)cc1F
(11) CCOc1ccc(C(=O)c2ccncc2)cc1
(12) COc1ccc(Cl)cc1NS(=O)(=O)c1cc(Br)cnc1N
(13) Cc1ccccc1-c1nc(CS(=O)(=O)CC(=O)N2CCN(C)CC2)c(C)o1
(14) CCOc1cc(/C=C(\C#N)C(=O)Nc2cccc(C(=O)O)c2)ccc1OCc1ccc(Br)cc1
(15) O=[N+]([O-])c1cccc(CSc2cccc[n+]2[O-])c1
(16) CCC(=O)Nc1cccc(NC(=O)CSc2nnnn2C2CCCC2)c1
(17) CC(=O)Nc1ccc(S(=O)(=O)Nc2nc3nc(-c4ccccc4)cc(-c4ccccc4)n3n2)cc1

screen / no. | 9 | 10 | 11 | 12 | 13 | 14 | 15 | 16 | 17
gsp agonist | -0.6% | -42.4% | -13.9% | -5.8% | 0.7% | 1.3% | 19.5% | 7.0% | 29.2%
ClpP mod | -8.9% | nt | -1.2% | nt | -3.4% | nt | -1.8% | -2.3% | 3.6%
Sfp inh | -1.3% | 16.8% | 13.3% | 14.3% | 6.8% | -4.4% | 19.3% | 8.0% | 11.1%
TRPV1 PAM | -19.1 | -8.3 | 8.0 | 24.2 | -16.2 | -2.8 | -2.3 | -7.0 | -6.2
D2 potentiator | 11.9 | -3.5 | -11.0 | 0.4 | -20.6 | -4.0 | 3.1 | -12.3 | -3.3
Menin MLL FP FL | 4.6 | -4.8 | 0.8 | nt | -1.1 | 2.2 | -2.3 | 4.4 | -6.9
gsp antag | -0.4% | -19.4% | 2.0% | -4.8% | -1.5% | ? | 5.5% | -7.3% | 2.5%
